Screening data (PubChem BioAssay)
MLL AF4-AF9 inh = inhibitors of human MLL-AF4/AF9 interaction; inhibition, % at 10 µM; P42568; hit rate 0.47% among 350,000; AlphaScreen, biotin-AF4 peptide binding to FLAG-AF9;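 active = every replicate reaching a set inhibition limit, whatever the replicate mean, cut at about 25% in these data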;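 also: 0% = plate neutral control median and 100% = total signal loss; the record names both 10 and 1 µM as test concentration; the first replicate is given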
Target sequence (P42568 whole entry, looked up): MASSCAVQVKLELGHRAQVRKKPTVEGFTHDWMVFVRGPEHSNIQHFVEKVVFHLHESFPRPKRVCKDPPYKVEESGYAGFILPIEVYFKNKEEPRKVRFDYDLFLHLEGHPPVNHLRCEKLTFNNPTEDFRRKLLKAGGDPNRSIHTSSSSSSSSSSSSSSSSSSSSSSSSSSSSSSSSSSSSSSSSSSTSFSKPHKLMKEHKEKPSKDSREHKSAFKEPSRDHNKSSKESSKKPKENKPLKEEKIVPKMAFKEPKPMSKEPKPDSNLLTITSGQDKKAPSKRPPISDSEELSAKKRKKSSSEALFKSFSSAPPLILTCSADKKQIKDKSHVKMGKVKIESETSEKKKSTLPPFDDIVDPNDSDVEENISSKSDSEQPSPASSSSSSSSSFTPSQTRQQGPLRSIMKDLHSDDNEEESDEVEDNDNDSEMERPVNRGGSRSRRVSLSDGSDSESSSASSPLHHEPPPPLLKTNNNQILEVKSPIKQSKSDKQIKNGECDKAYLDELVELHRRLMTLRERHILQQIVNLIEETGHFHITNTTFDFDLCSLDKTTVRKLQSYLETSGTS
FGF22 binding = binders of recombinant human FGF22 by thermal shift. Q9HCT0. SYPRO orange fluorescence; percent of sucrose octasulfate shift, DMSO zero. calls only at 9.99 µM. hit rate 1.5% among 340,000. AID 651658;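 active = melting point raised past a set limit in the mean and every replicate; three in four hits are not shown here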
Target sequence (Q9HCT0 whole entry, looked up): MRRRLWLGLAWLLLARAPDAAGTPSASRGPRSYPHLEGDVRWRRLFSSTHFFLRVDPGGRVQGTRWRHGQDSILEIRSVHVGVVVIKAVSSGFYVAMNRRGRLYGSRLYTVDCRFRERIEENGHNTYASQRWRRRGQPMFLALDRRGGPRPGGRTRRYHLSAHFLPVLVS
Ecoli rRNA inh = selective bacterial rRNA inhibition in E. coli; E. coli WT GFP vs humanized-ribosome RFP mutants, fluorescence, 24 h; hits give low values; DMSO median 0, no signal -100; GFP signal change (wild-type ribosome), % (no concentration beside the values); hit rate 1.6% among 350,000; AID 720706;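 active = significant combined selectivity score with lowered wild-type GFP, culture density cut under 30%, mutant RFP and density less affected; inactive = any of these conditions unmet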; also: one replicate is shown; some compounds called inactive have numbers as strong as hits
Ecoli rRNA inh OD600 = further read-out of Ecoli rRNA inh, marked with its call; OD600 change, %; measured here: OD600 growth;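 optical density of the mix in the first replicate; 0 = DMSO median and -100 = no signal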
Ecoli rRNA inh RFP = also measured in Ecoli rRNA inh; calls as there; RFP signal change, %; measured here: RFP humanized mutant strains;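 first replicate; 0 = DMSO median and -100 = no signal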
Starred values were filed as active, the others as inactive; i = inactive; & = joins results of further samples. These rows are one share of the data (hit frequency here may not be typical).

SMILES	MLL AF4-AF9 inh	FGF22 binding	Ecoli rRNA inh	Ecoli rRNA inh OD600	Ecoli rRNA inh RFP
CO[C@H](CN(C)C(=O)Nc1ccc(F)cc1)[C@@H](C)CN(Cc1ccccc1Cl)[C@H](C)CO	0.7	i	-1	-5	1.3
C[C@@H]1CN([C@H](C)CO)C(=O)Cc2cc(NC(=O)NC3CCCCC3)ccc2O[C@@H]1CN(C)S(=O)(=O)c1ccccc1	2.9	i	-1	-2	3.5
C[C@@H]1CN([C@@H](C)CO)C(=O)c2cc(NS(=O)(=O)c3ccc(F)cc3)ccc2O[C@@H]1CN(C)S(=O)(=O)c1ccc(Cl)cc1	5.3	i	-3	-18	4.1
CN(C)C(=O)C[C@H]1CC[C@@H]2[C@H](COC[C@H](O)CN2S(=O)(=O)c2ccccc2Cl)O1	0.0	i	-5	-3	-1.3
O=C(C[C@H]1CC[C@@H]2[C@H](COC[C@@H](O)CN2S(=O)(=O)c2ccc(F)cc2)O1)NCCN1CCCCC1	-1.0	i	6	12	-1.2
Cc1ccccc1-c1cnc2c(c1)C(=O)N([C@@H](C)CO)C[C@@H](C)[C@H](CN(C)C(=O)c1cccnc1)O2	-2.1	i	1	17	-4.3
CC1(C(=O)NS(=O)(=O)c2ccccc2OC(F)(F)F)CCN1C(=O)c1ccco1 (centres undefined)	-6.0	i	3	7	-3.4
CCC(=O)N(C)C[C@@H]1Oc2cc(-c3ccncc3)ccc2S(=O)(=O)N([C@@H](C)CO)C[C@@H]1C	-0.8	i	0	3	-0.3
C[C@@H]1CN([C@H](C)CO)C(=O)c2ccccc2-c2ccccc2CO[C@@H]1CN(C)C(=O)Nc1cccc(C(F)(F)F)c1	-0.2	i	1	3	-0.7
CCC(=O)N1[C@H](C(=O)OC)[C@@H](CO)[C@@H]2Cn3c(ccc(-c4cccc(F)c4)c3=O)[C@@H]21	1.8	i	1	0	1.1
C[C@H](CO)N1C[C@H](C)[C@@H](CN(C)Cc2ccc(-c3ccccc3)cc2)Oc2ccc(NC(=O)Nc3ccc(F)cc3)cc2CC1=O	-11	i	-2	-3	1.9
CO[C@H]1CN(C)C(=O)c2ccc(NC(=O)c3ccc(-c4ccccc4)cc3)cc2OC[C@H](C)NC[C@H]1C	12	i	-10	-19	18
C[C@H](CO)N1C[C@H](C)[C@H](CN(C)Cc2ccccc2)Oc2ccc(NC(=O)Nc3ccccc3)cc2C1=O	1.1	i	0	-13	-0.2
O=C(N[C@H]1CC[C@H](CCNS(=O)(=O)Cc2ccccc2)O[C@@H]1CO)c1ccc2c(c1)OCO2	0.0	i	-3	0	0.5
C[C@@H]1CN([C@@H](C)CO)C(=O)c2cccc(NC(=O)C3CCOCC3)c2O[C@@H]1CN(C)Cc1ccc(-c2ccccc2)cc1	0.9	i	0	-4	-1.3
CO[C@@H]1CC[C@@H]2CCOc3c(C#N)cccc3C(=O)N(C)C[C@@H](OC)[C@@H](C)C(=O)N(C)C[C@H]1O2	3.3	i	0	7	-0.5
C[C@H]1CN([C@@H](C)CO)C(=O)c2cc(NS(C)(=O)=O)ccc2O[C@H]1CN(C)C(=O)Nc1ccccc1	-9.6	i	6	9	2.7
O=C(C[C@H]1CC[C@@H]2[C@H](COC[C@H](O)CN2C(=O)c2cnccn2)O1)NCc1ccccc1	-0.7	i	5	7	2.2
O=C(CC1CC1)N1CC2(C1)[C@H](c1ccccc1)[C@@H](CO)N2Cc1cccc(F)c1	-1.0	i	3	-4	2.9
CC1NC(=O)c2cc3ccccc3cc2-n2c1nc1ccc(F)cc1c2=O (centres undefined)	-1.6	i	2	2	-2.6
O=C(NCC(F)(F)F)c1ccc2sc([C@H]3C[C@H](O)[C@@H](CO)O3)nc2c1	-0.2	i	14	16	-1.1
CN(C)CCNC(=O)c1cccc(-c2cnc3c(NC=O)cc(-c4cc(F)c(F)c(F)c4)cn23)c1	7.3	i	-53	-79	-11
N#C[C@@H]1[C@H](c2ccc(-c3cccc(F)c3)cc2)[C@@H](CO)N1C(=O)c1cccnc1	-1.7	i	3	-15	0.6
CO[C@H]1CN(C)C(=O)c2cc(NC(=O)Cc3ccccc3)ccc2OC[C@H](C)NC[C@@H]1C	-1.1	i	4	8	-1.0
Cc1ccc(S(=O)(=O)Nc2ccc3c(c2)C(=O)N([C@@H](C)CO)C[C@@H](C)[C@@H](CN(C)C(=O)NC2CCCCC2)O3)cc1	-0.2	i	-9	-2	-0.2
Cc1nn(C)cc1NC(=O)C[C@H]1CC[C@H]2[C@@H](COc3ccc(NC(=O)C4CCOCC4)cc3C(=O)N2C)O1	4.0	i	-1	-1	-1.8
NC(Cc1ccc(Cl)cc1)c1csc(Nc2ccc(-c3ccccc3)nn2)n1 (centres undefined)	1.7	i	-59	-79	-21
Cc1ccc(S(=O)(=O)N(C)C[C@@H]2OCCCC[C@@H](C)Oc3ccc(NC(=O)Nc4cccc5ccccc45)cc3C(=O)N([C@@H](C)CO)C[C@H]2C)cc1	0.0	i	1	20	-1.7
O=C(O)c1ccc(NCc2nc3cc4ccccc4cc3[nH]2)cc1	2.0	i	-3	0	1.2
COc1ccc(CN(C)C[C@H]2Oc3ccc(NC(=O)CCC(F)(F)F)cc3C(=O)N([C@H](C)CO)C[C@H]2C)cc1	-2.2	i	5	6	-0.1
Cc1noc(C)c1S(=O)(=O)Nc1ccc2c(c1)C(=O)N([C@H](C)CO)C[C@H](C)[C@@H](CN(C)S(C)(=O)=O)OCCCC[C@@H](C)O2	-2.6	i	0	9	0.0
C[C@@H]1CN([C@@H](C)CO)C(=O)CCCn2cc(nn2)CO[C@H]1CN(C)S(=O)(=O)c1cccs1	-0.5&-2.0	i	25&0	12&2	2.2&0.6
COc1ccccc1S(=O)(=O)N[C@H]1CC[C@@H](CCNC(=O)C2CCCCC2)O[C@H]1CO	1.0	i	2	-3	0.0
Cc1ccc(S(=O)(=O)N(C)C[C@H]2Oc3c(NC(=O)Nc4ccc(F)cc4)cccc3C(=O)N([C@H](C)CO)C[C@@H]2C)cc1	2.1	i	-2	-7	2.0
C[C@@H]1CN([C@@H](C)CO)C(=O)c2cccc(NC(=O)C3CCOCC3)c2O[C@@H]1CN(C)Cc1ccc(Oc2ccccc2)cc1	5.7	i	1	-11	2.5
CC(CO)NS(=O)(=O)c1cc(Cl)ccc1F (centres undefined)	0.0	i	2	7	1.0
O=C(C[C@@H]1CC[C@H](NC(=O)Nc2ccccc2)[C@H](CO)O1)NCc1cccc(F)c1	-3.3	i	1	-1	-3.6
CN(C)CCN(C)C1CN(Cc2ccc(F)cc2)S(=O)(=O)C1 (centres undefined)	-5.4	i	26	10	6.4
CCNC(=O)C[C@@H]1C=C[C@@H](NS(=O)(=O)c2ccc(F)cc2)[C@@H](CO)O1	0.2&0.4	i	0&10	3&3	-1.5&0.0
C[C@H](CO)N1C[C@H](C)[C@H](CN(C)C)OCCCC[C@H](C)Oc2ccc(NS(C)(=O)=O)cc2C1=O	-8.8	i	2	-1	-3.2
C[C@@H]1CN([C@@H](C)CO)C(=O)c2cc(-c3ccccc3)cnc2O[C@H]1CN(C)C	-4.0	i	1	2	-0.3
C[C@@H]1CN([C@H](C)CO)C(=O)c2cc(-c3ccncc3)cnc2O[C@@H]1CN(C)C(=O)C1CCCCC1	-2.1	i	4	13	-0.3
CC1(C(=O)NS(=O)(=O)c2ccc(C#N)cc2)CCN1C(=O)Cc1cccc2ccccc12 (centres undefined)	-3.8	i	8	14	-0.7
C[C@H]1CN([C@@H](C)CO)C(=O)Cc2cc(NC(=O)c3ccncc3)ccc2O[C@@H]1CN(C)Cc1ccc(Oc2ccccc2)cc1	1.6	i	-10	-32	6.2
C[C@@H]1CN([C@@H](C)CO)C(=O)Cc2cc(NC(=O)Nc3ccc(F)cc3)ccc2O[C@@H]1CN(C)C(=O)Nc1ccc(F)cc1	-1.2	i	0	-10	-1.1
CC(=O)Nc1ccc2c(c1)C(=O)N(C)[C@H]1CC[C@@H](CC(=O)Nc3cn(C)nc3C)O[C@@H]1CO2	1.1	i	2	-1	1.4
COc1ccccc1NC(=O)N(C)C[C@@H]1OCc2cn(nn2)CCCC(=O)N([C@@H](C)CO)C[C@@H]1C	-1.2	i	0	3	-0.5
C[C@@H]1CN([C@H](C)CO)S(=O)(=O)c2ccc(C#CCN(C)C)cc2O[C@@H]1CN(C)S(C)(=O)=O	-1.4	i	4	3	-5.7
Cc1nc2c(OCc3ccc(Cl)cc3)cccn2c1N(C)C(=O)CCC1CCCC1	0.4	i	4	-17	37
CCCNC(=O)N1[C@H](C#N)[C@H](c2ccc(-c3ccc(C(=O)N(C)C)cc3)cc2)[C@H]1CO	-0.5	i	-4	16	-1.0
CC1(C)CC(=O)C=C(c2ccc(CO)cc2)C1=O	2.3	i	5	16	1.0
C[C@@H]1CN([C@H](C)CO)C(=O)Cc2cc(NC(=O)Cc3ccccc3)ccc2O[C@@H]1CN(C)Cc1ccc(C(F)(F)F)cc1	3.1	i	-5	-3	1.1
CC(C)N(C)c1ncnc2c1ncn2[C@H]1CN(Cc2ccccc2)C[C@@H](CO)O1	-0.2	i	1	-1	0.7
C[C@@H]1CCCCO[C@@H](CN(C)Cc2ccccc2)[C@@H](C)CN([C@@H](C)CO)C(=O)c2cc(NC(=O)C3CCCCC3)ccc2O1	5.1	i	4	-2	2.1
C[C@@H]1CN([C@H](C)CO)C(=O)Cc2cc(NC(=O)CCCCCC(=O)Nc3ccccc3N)ccc2O[C@@H]1CN(C)Cc1ccc(-c2ccccc2)cc1	0.7	i	0	2	6.6
COc1ccc(C[C@@H]2CCn3cc(nn3)COC[C@H](Cc3ccccc3)NC2=O)cc1	-0.2	i	2	13	-0.6
CN(C)CC(=O)Nc1ccc2c(c1)[C@H]1C[C@@H](CC(=O)NC3CCCC3)O[C@H](CO)[C@H]1O2	-0.6	i	2	6	0.6
COc1ccccc1NC(=O)N1CCCCN2[C@H](C1)[C@H](c1ccc(-c3cccc(F)c3)cc1)[C@@H]2CO	-4.9	i	-5	-11	12
CC(O)(c1ccccc1)c1nc(-c2cccc(F)c2)cs1 (centres undefined)	-5.8	i	-60	-76	-14
O=C(C[C@@H]1CC[C@@H]2[C@H](COC[C@@H](O)CN2Cc2ccccc2)O1)NCCCN1CCOCC1	-3.5	i	1	-3	-5.4

Compound profiles, from the list above. Order of values: MLL AF4-AF9 inh	FGF22 binding	Ecoli rRNA inh	Ecoli rRNA inh OD600	Ecoli rRNA inh RFP
`C[C@@H]1CN([C@H](C)CO)S(=O)(=O)c2ccc(C#CCN(C)C)cc2O[C@@H]1CN(C)S(C)(=O)=O` in the list: -1.4	i	4	3	-5.7
`CC1(C(=O)NS(=O)(=O)c2ccc(C#N)cc2)CCN1C(=O)Cc1cccc2ccccc12` (centres undefined) in the list: -3.8	i	8	14	-0.7

(continued)
SMILES	MLL AF4-AF9 inh	FGF22 binding	Ecoli rRNA inh	Ecoli rRNA inh OD600	Ecoli rRNA inh RFP
CCCC#Cc1ccc2c(c1)O[C@@H](CN(C)CC1CCCC1)[C@H](C)CN([C@H](C)CO)S2(=O)=O	5.9	i	-1	-4	0.4
COc1ccc(C(=O)Nc2ccccc2C(=O)Nc2ccccc2)cc1	-2.0	i	3	5	-2.6
C[C@H]1CN([C@@H](C)CO)C(=O)c2cc(Br)cnc2O[C@H]1CN(C)C(=O)c1cccnc1	-2.3&0.2&-1.7	i	7&4	14&18	-1.1&0.8
CCCNC(=O)C[C@H]1CC[C@@H]2[C@@H](COc3ccc(NC(=O)c4ccc5c(c4)OCO5)cc3C(=O)N2C)O1	-7.9	i	-4	4	1.2
Cc1noc(C)c1S(=O)(=O)Nc1ccc2c(c1)C(=O)N([C@@H](C)CO)C[C@H](C)[C@@H](CN(C)CC1CC1)OCCCC[C@@H](C)O2	5.1	i	0	8	-1.7
COc1ccccc1NC(=O)N(C)C[C@H]1Oc2ncc(Br)cc2C(=O)N([C@H](C)CO)C[C@H]1C	-0.6&0.5	i	3	12	-0.6

Arranged by value in Ecoli rRNA inh (high to low): 4 from the list above
SMILES	MLL AF4-AF9 inh	FGF22 binding	Ecoli rRNA inh	Ecoli rRNA inh OD600	Ecoli rRNA inh RFP
COc1ccccc1NC(=O)N(C)C[C@H]1Oc2ncc(Br)cc2C(=O)N([C@H](C)CO)C[C@H]1C	-0.6&0.5	i	3	12	-0.6
Cc1noc(C)c1S(=O)(=O)Nc1ccc2c(c1)C(=O)N([C@@H](C)CO)C[C@H](C)[C@@H](CN(C)CC1CC1)OCCCC[C@@H](C)O2	5.1	i	0	8	-1.7
CCCC#Cc1ccc2c(c1)O[C@@H](CN(C)CC1CCCC1)[C@H](C)CN([C@H](C)CO)S2(=O)=O	5.9	i	-1	-4	0.4
CCCNC(=O)C[C@H]1CC[C@@H]2[C@@H](COc3ccc(NC(=O)c4ccc5c(c4)OCO5)cc3C(=O)N2C)O1	-7.9	i	-4	4	1.2
